# D2 agonist = activates the human D2 dopamine receptor. DiscoveRx PathHunter D2 beta-arrestin, luminescence, 90 min; 100% = 57 uM dopamine signal. activation, % (no concentration beside the values). hit rate 0.084% among 360,000. AID 624465; in the data active = activation above about 40%; inconclusive = about 15% to 40%; inactive = below about 15%; note: compound concentration not given in the record; the text of the record calls up to 30% inactive
# Target sequence (P14416 whole entry, looked up): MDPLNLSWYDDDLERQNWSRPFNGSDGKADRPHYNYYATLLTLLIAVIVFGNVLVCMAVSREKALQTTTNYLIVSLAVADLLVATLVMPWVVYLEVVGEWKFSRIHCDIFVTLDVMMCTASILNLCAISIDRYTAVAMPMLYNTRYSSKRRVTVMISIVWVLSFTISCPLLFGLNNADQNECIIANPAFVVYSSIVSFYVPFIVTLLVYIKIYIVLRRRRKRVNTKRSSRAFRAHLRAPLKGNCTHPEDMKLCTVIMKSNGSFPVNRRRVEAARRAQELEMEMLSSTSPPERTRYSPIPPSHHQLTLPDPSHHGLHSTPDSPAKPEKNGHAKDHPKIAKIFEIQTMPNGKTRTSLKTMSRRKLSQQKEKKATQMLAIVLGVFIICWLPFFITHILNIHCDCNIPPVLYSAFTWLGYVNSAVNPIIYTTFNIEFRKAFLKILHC
#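 Agonist mode: compounds alone added to overnight-plated D2 PathHunter cells for 90 min at 37 C, with 57 uM final dopamine (EC100) defining full response. Beta-arrestin recruitment detected by chemiluminescent reagent, read after 1 h at ambient temperature.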
# Six1-Eya2 inh = blocks human Six1 binding to Eya2; Q15475+O00167; activity change, % (test concentration not listed); AlphaScreen GST-Six1/His-Eya2 binding, biochemical; hits give low values; control for the full effect not named in the record; hit rate 0.56% among 360,000; AID 651725; in the data active = activity change below about -65%; inconclusive = about -30% to -65%; inactive = above about -30%; note: % is set by controls: 0 for no effect and ±100 for the full control effect; compound concentration not given in the record
#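 GST-Six1 + His-Eya2 (5X stock: 250/500 nM); Tris pH 8.0, 300 mM NaCl, 0.05% BSA, 0.02% Tween 20; GSH donor/Ni acceptor beads; 1 h 37 °C dark; AlphaScreen readout.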
# CtBP-E1A blk = blocks the CtBP interaction with E1A | AlphaScreen GST-E1A/His-CtBP binding, 1536-well; hits give low values; control for the full effect not named in the record | activity change, % (test concentration not listed) | hit rate 0.49% among 340,000 | AID 651724; in the data active means activity change below about -65%; inconclusive means about -30% to -65%; inactive means above about -30%; note: % is set by controls: 0 for no effect and ±100 for the full control effect; compound concentration not given in the record
#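 Protein mix (5X: 125 nM each GST-E1A, His-CtBP) was incubated with pinned compound 2 h at 37 deg C in dark, in 50 mM Tris pH 8.0 buffer with 300 mM NaCl. Glutathione donor and nickel acceptor beads followed; AlphaScreen signal read after 1 h.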
# TRPML1 ag = activates the human TRPML1 channel. TRPML1-expressing cells, Ca2+ dye fluorescence, FDSS; host cell line not named in the record; reference of the full effect not given here. activation, % (test concentration not listed). hit rate 0.12% among 410,000. AID 624414; in the data active = activation above about 50%; inconclusive = about 30% to 50%; inactive = below about 30%; note: 0% is about no effect; the text of the record puts the active cut at 80%
# Target sequence (Q9GZU1 whole entry, looked up): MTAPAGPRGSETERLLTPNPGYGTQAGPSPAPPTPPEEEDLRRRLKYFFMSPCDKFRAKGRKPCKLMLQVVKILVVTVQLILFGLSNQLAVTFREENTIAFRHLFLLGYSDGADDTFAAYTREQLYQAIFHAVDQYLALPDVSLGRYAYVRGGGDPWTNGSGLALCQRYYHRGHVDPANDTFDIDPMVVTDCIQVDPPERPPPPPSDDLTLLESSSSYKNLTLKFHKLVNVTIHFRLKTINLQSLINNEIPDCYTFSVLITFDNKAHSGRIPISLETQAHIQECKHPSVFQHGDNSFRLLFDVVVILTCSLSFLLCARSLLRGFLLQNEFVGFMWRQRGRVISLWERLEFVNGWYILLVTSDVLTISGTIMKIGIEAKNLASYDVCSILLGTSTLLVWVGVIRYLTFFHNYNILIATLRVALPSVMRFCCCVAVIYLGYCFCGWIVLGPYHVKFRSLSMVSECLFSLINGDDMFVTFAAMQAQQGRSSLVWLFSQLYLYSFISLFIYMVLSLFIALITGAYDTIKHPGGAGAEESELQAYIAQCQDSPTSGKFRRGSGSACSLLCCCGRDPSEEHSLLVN
#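 Agonist activity was taken from a 110 s kinetic Ca2+ dye read on the FDSS after pinning compounds onto TRPML1-DL cells. The cells were seeded at 1,500/well with Tet inducer, incubated about 16 h, then dye-loaded at room temperature.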
# PINK1 expr mod = PINK1 expression modulation | Potency, µM (titrated, usually from 76.6 µM), for inactives: at the highest dose activation (PINK1 increase), actives largely listed as activators | hit rate 0.2% among 410,000 | PINK1 immunofluorescence, high-content cytometry, 24 h | AID 624263; active = well fitted activation curve with a large enough effect; inconclusive = small, poorly fitted or top-dose-only effect; inactive = flat fitted curve, though single readings scatter; cell line not stated here;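 note: potency is the fitted concentration of half-maximal effect; % of control where 0% means no effect; nearly all actives have a fitted effect of over 65% in size; a mitochondrial uncoupler was the plate control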
#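 PINK1 protein, normally rapidly degraded, was detected by immunofluorescence after 24 hour compound treatment of a stable cell line. Titration data (5 concentrations) came from laser-scanning cytometry, with CCCP-treated wells as controls.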
# D2 PAM = potentiates the human D2 dopamine receptor allosterically. DiscoveRx D2 beta-arrestin cells, luminescence, 90 min; 100% = 57 uM dopamine signal. hit rate 0.23% among 360,000. P14416. potentiation, % (test concentration not listed). AID 624464; active = potentiation of 50% or more; inconclusive = 30% to 50%; inactive = 30% or less;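 note: compound concentration not given in the record; tested on top of an EC20 dose of dopamine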
#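 D2 cells co-treated with compound plus 50 nM dopamine (EC20) for 90 min at 37 deg C to detect potentiation. Beta-arrestin recruitment was read as enzyme-fragment luminescence after 1 h at ambient temperature. Full response was set by 57 uM dopamine.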
# The depositor's hits bear a star; ? = inconclusive; / = no result given; & = joins results of further samples; [ ] = remark or other dose.
# Every second line gives: CtBP-E1A blk	TRPML1 ag	Six1-Eya2 inh	PINK1 expr mod	D2 PAM	D2 agonist
- O=C(NCCS(=O)(=O)N1CCCCCC1)c1ccccc1
  -21	0.1	6	0.2%	-33	-1.4
- O=C(COc1ccc(F)c(Cl)c1)Nc1ccc(N2CCOCC2)cc1
  -3	-0.8	-11	1.9%	-3	2.7
- CS(=O)(=O)N1CCN(c2ccccc2[N+](=O)[O-])CC1
  /	-0.3	4	0.6%	-7	2.9
- Cc1ccc(NC(=O)CN(C)CC(=O)Nc2sc3c(c2C(N)=O)CCC3)cc1
  -17	-0.3	-7	-0.2%	1	-2.1
- CC1CCN(CCc2nc3cc(NS(=O)(=O)c4ccccc4)ccc3n2C)CC1
  2	0.6	0	-1.3%	-47	-5.2
- Cc1ccc(C(=O)NCCCc2ccccc2)c(C)c1
  2	-1.2	6	-0.8%	-12	-4.4
- C=CCn1c(CCC(=O)Nc2ccc(C)c(Cl)c2)nnc1SCC(=O)Nc1ccccc1C
  -1	-0.4	-3	-1.0%[38.3 µM]	0	-2.8
- CCCNC(=O)C1(C)CCCN(Cc2cc(-c3ccccc3)nn2C)C1 (stereo not given)
  -17	-0.5	-14	0.1%	-5	4.1
- Cc1ccc2nc(SCCC(=O)O)cc(C)c2c1
  -1	-0.4	7	0.9%	-19	-0.9
- CCN(CC)C(=O)c1[nH]cnc1C(=O)NCC(=O)OCc1ccccc1
  6	0.3	1	2.4%	12	6.5
- O=C(CNC(=O)c1cccc(F)c1)OCC(=O)N1CCCCC1
  0	0.1	9	1.7%	-4	-3.6
- COc1ccc(-n2c(C)nc3cc(C(=O)NCc4ccco4)ccc32)cc1
  1	0.3	-8	-0.6%	-10	-0.6
- CCOC(=O)C1CCCN(C(=O)COC(=O)c2cccs2)C1 (stereo not given)
  -1	0.5	-6	1.5%	-19	-2.1
- COC(=O)CC1C(=O)NCCN1C(=O)Nc1ccc(Cl)cc1 (stereo not given)
  5	-0.5	14	1.5%	-3	-0.3
- O=C(COC(=O)COc1ccc2ccccc2c1)NCC(F)(F)F
  6	-0.5	-1	-1.4%	0	-0.1
- COc1ccc(NC(=O)c2ccc3c(c2)NC(=O)CO3)cc1OC
  4	-1.0	1	1.2%	-14	-3.1
- O=C(NC1CCCC1)C(c1ccncc1)N(C(=O)Cc1cccs1)c1ccc(F)cc1 (stereo not given)
  -2	-1.7	-17	4.5%	-6	-11
- CCOc1cc2[nH]c(=S)n(CCCC(=O)NCc3ccccn3)c(=O)c2cc1OCC
  /	2.2	-16	2.2%	8	2.8
- O=C(NCC1COc2ccccc2O1)c1ccc(F)c(S(=O)(=O)N2CCOCC2)c1 (stereo not given)
  6	-0.6	-6	0.4%	-22	-4.0
- COCC(=O)OCn1nnc2ccccc2c1=O
  11	-0.5	8	1.0%	-14	-1.3
- Cc1ccccc1NC(=O)CN1CCOCC1
  -5	-0.5	-10	-0.9%	-4	-2.3
- O=C(OCC(=O)N1CCCC1)c1ccc(S(=O)(=O)N2CCOCC2)cc1
  8	0.1	-22	-0.7%	2	4.2
- CCOc1cc(/C=N/Nc2nn3cnnc3c3ccccc23)ccc1O
  -67*	-0.1	-88*	-2.1%	-2	6.6
- O=C(O)CCCN1C(=O)/C(=C\C(Cl)=C\c2ccccc2)SC1=S
  -6	/	-15	-0.3%	2	-0.3
- Cc1cccn2c(=O)c3cc(C(=O)N4CCCCC4)sc3nc12
  0	-1.3	0	-0.5%	-2	-7.1
- CC(C)n1cc(NC(=O)COc2ccccc2Cl)cn1
  4	0.0	-3	1.8%	-6	-3.6
- O=C(CCn1c(=S)[nH]c2ccccc2c1=O)NCCSCc1ccccc1
  8	-0.9	1	4.6%	-2	7.5
- NS(=O)(=O)c1ccc(CNS(=O)(=O)c2cc(Cl)ccc2Cl)cc1
  7	-0.1	3	0.9%	1	2.0
- CSC(=Nc1cccc(C)c1)NC#N
  -5	-0.6	8	0.1%	-1	-3.6
- COc1ccc(C2=NOC(C(=O)Nc3ccc4c(c3)OCCO4)C2)c(OC)c1 (stereo not given)
  3	2.2	0	-0.3%	-7	0.1

# Whole records, quoted from the list. Screens in order: CtBP-E1A blk	TRPML1 ag	Six1-Eya2 inh	PINK1 expr mod	D2 PAM	D2 agonist
# CC(C)n1cc(NC(=O)COc2ccccc2Cl)cn1 as listed: 4	0.0	-3	1.8%	-6	-3.6
# COCC(=O)OCn1nnc2ccccc2c1=O as listed: 11	-0.5	8	1.0%	-14	-1.3
# CCOc1cc(/C=N/Nc2nn3cnnc3c3ccccc23)ccc1O as listed: -67*	-0.1	-88*	-2.1%	-2	6.6
# COc1ccc(NC(=O)c2ccc3c(c2)NC(=O)CO3)cc1OC as listed: 4	-1.0	1	1.2%	-14	-3.1

# Later entries:
# Every second line gives: CtBP-E1A blk	TRPML1 ag	Six1-Eya2 inh	PINK1 expr mod	D2 PAM	D2 agonist
- COc1ccccc1CCC(=O)OCC(=O)Nc1c(C)nn(-c2ccccc2)c1C
  3	-0.1	0	-0.7%	2	-3.6
- Cc1cc(O)c2c(c1O)C(=O)[C@]13C(=C2O)C(=O)[C@@H]2[C@@H](O)[C@H]1[C@@H]1[C@H](O)[C@H]3C(=O)C3=C(O)c4c(O)cc(C)c(O)c4C(=O)[C@]312
  -24	/	?	?	-18	10
- Cc1ccc(NC(=S)NCc2ccc(F)cc2)cc1
  2	1.3	3	0.7%	-6	0.4
- CN1CC(=O)Nc2ccccc2C1=O
  /	0.4	0	0.9%	-2	-6.3
- Cc1cc(Cl)n2nc(C)c(-c3ccc(Cl)cc3)c2n1
  1	-1.1	1	-1.2%	-41	1.8
- O=C(Nc1ccc(C(=O)O)cc1)/C(=C\C=C\c1ccccc1)NC(=O)c1ccccc1Br
  -4	-0.3	11	-0.8%	0	?
- O=C(CC(=O)c1cccc([N+](=O)[O-])c1)Nc1ccccc1Cl
  -2	-0.3	-2	3.8%	3	-3.4
- CCc1nc(-c2ccc(OC)c(OC)c2)cc2cc(OC)c(OC)cc12
  -3	0.2	-10	11%	4	0.7
- Cc1nonc1NC(=O)CSc1nc2cc(Cl)ccc2c2c1CCCC2
  8	0.9	2	?	-5	1.3
- Cn1ncc(Cl)c1C(=O)N1CCCc2ccccc21
  1	0.4	-7	-1.4%	-14	-1.2
- CCCCc1c(C)nc2ccc(C(=O)OCC)cc2c1Cl
  6	0.9	1	11%	-7	-2.0
- O=c1[nH]n2cc(-n3cc([N+](=O)[O-])cn3)cnc2c1Br
  /	0.4	0	0.8%	-12	-4.9
- C=CC[C@H](CC(=O)N[C@H](CO)Cc1ccccc1)C(=O)N[C@H](COC(=O)[C@H](CC=C)CC(=O)OC(C)(C)C)Cc1c[nH]c2ccccc12
  /	0.0	-8	8.5%	-9	-1.0
- CCOc1ccc(-n2c(-c3ccccc3)c[nH]c2=S)cc1
  -2	-0.7	-16	2.2%	3	-4.8
- O=C(O)CCn1c(-c2ccccn2)nc2ccccc21
  6	-0.7	-2	-1.7%	-2	-1.7
- Cc1ccc(Cc2c(-c3cccc(Br)c3)nc3c(C)cc(Br)cn23)cc1
  -26	-0.3	1	2.4%	/	/
- O=C1Nc2ccccc2C(=O)C1(Cl)Cc1ccccc1 (stereo not given)
  -7	0.1	1	17%	-4	-1.1
- Cc1nc2nc(C)c(CCC(=O)NC3CCCCC3)c(C)n2n1
  9	0.6	2	0.3%	-6	0.9
- CC(C)C(NS(=O)(=O)c1ccc2c(c1)oc(=O)n2C)C(=O)N1CCN(c2ccccc2F)CC1 (stereo not given)
  4	-0.3	-5	2.9%	1	-3.7
- CCc1nc(SCC(=O)Nc2cccc(C(F)(F)F)c2)c2c(=O)n(C)c(=O)n(C)c2n1
  4	0.4	2	2.9%	1	3.2
- COCCn1c(SCC(=O)Nc2ccc(C)cc2C)nc2c(oc3ccccc32)c1=O
  -7	0.0	2	0.8%	-8	-0.9
- COc1nc(N(C)C)nc(-n2nnc(C(C)=O)c2C)n1
  -3	0.3	2	1.8%	-8	-0.6
- Cc1ccccc1OC1=NS(=O)(=O)c2ccccc21
  6	0.0	6	-0.8%	-3	-0.6
- COc1ccc(NC(=O)N(C)C[C@H]2Oc3ccc(NC(=O)Nc4c(C)noc4C)cc3C(=O)N([C@H](C)CO)C[C@@H]2C)cc1
  -11	-0.6	-4	-0.2%	/	0.2
- Cn1c(SCC(=O)NNC(=O)c2ccccc2)nnc1C(F)(F)F
  10	-0.5	-2	0.8%	-8	-3.2
- Cc1cc(C)cc(-n2nnc(C(=O)NCc3ccc(Cl)cc3)c2N)c1
  6	5.1	4	13%	3	2.9
- Cc1ccc(C)c2sc(NC(=O)CN3C(=O)CCC3=O)nc12
  -15	/	-5	1.8%	-5	-6.5
- COc1cccc(CC2(CO)CCN(S(=O)(=O)c3ccc(OC)cc3OC)CC2)c1
  0	0.0	11	-0.5%	-1	-3.5
- COc1ccc(CN2CCC2(C)C(=O)NCc2ccc3c(c2)OCO3)c2ccccc12 (stereo not given)
  -7	-0.2	-15	19%	-6	2.1
- CC(=O)NC1=NN(C(C)=O)C2(S1)C(=O)N(C(C)=O)c1ccc(C)cc12 (stereo not given)
  6	-0.3	4	1.5%	-12	-3.2
- Cc1cccc(C)c1NC(=O)C1CSC2(C)CCC(=O)N12 (stereo not given)
  -1	-0.3	3	-0.7%	-15	-1.6
- Cc1nc2ccc(NS(=O)(=O)c3ccc(Br)cc3)cc2s1
  /	0.4	-23	4.6%	7	-6.9
- CC(OC(=O)CCN=C1NS(=O)(=O)c2ccccc21)C(=O)NCc1ccccc1 (stereo not given)
  2	-0.1	-1	4.6%	2	-0.4
- COc1ccc(C(=O)Nc2ccc(N3CCN(Cc4ccccc4)CC3)cc2)cc1
  8	0.4	4	2.6%	2	-9.7
- O=C(Cc1cccs1)NNC(=S)NCc1ccco1
  7	-0.1	1	0.7%	-8	2.8
- COc1ccc(Cc2nnc(NC(=O)Cn3cnc4c3c(=O)n(C)c(=O)n4C)s2)cc1OC
  -11	-0.1	-1	-1.3%	7	0.2
- COc1ccc(CNC(=O)Nc2ccc(OC)cc2)cc1
  -15	0.4	-3	-0.8%[38.3 µM]	-6	0.6
- Fc1ccc(CSc2nnc(-c3ccccn3)o2)cc1
  /	/	2	-0.8%	17	2.5
- NNC(=O)Cn1c(SCc2ccccc2)nc2ccccc21
  -4	-0.4&-0.9	10	-0.1%&1.1%	10	-4.8
- Cc1cc(N2C(=O)NC(=O)CC2C)c(C)cc1C(C)C (stereo not given)
  0	-0.5	1	-0.6%	22	-3.0
- Cc1cccnc1NC(=O)CN1C(=O)NC(C)(c2ccc3ccccc3c2)C1=O (stereo not given)
  8	1.3	2	-1.0%	-8	1.6
- COc1ccc(C)cc1NC(=O)CCS(=O)(=O)c1cc2c(cc1Cl)NC(=O)CO2
  0	0.5	2	-1.3%	3	-2.6
- COc1ccccc1NS(=O)(=O)c1cc(C(=O)N2CCCC2)ccc1C
  /	-0.4	8	-1.6%	1	-0.8
- COC(=O)COc1ccc(S(=O)(=O)NC2CCCCCC2)cc1
  5	0.5	2	/	?	1.0
- O=C(O/N=C/C1=C(Cl)c2ccccc2CC1)c1ccc(F)cc1
  6	0.1	-6	-0.1%	-22	0.8
